VDR inh: vitamin D3 receptor (human) inhibition; AID 504847; 400,000 tested, 0.93% active; Potency, µM, without a hit: max response, negative = inhibition, actives largely listed as inhibitors; VDR-SRC2-3 peptide fluorescence polarization, 2 h; active = well fitted inhibition curve with a large enough effect; inconclusive = small, poorly fitted or top-dose-only effect, or another doubt; inactive = no such curve, though single readings can be large or run the other way; note: series mostly up to about 120 µM
Target sequence (P11473 whole entry, looked up): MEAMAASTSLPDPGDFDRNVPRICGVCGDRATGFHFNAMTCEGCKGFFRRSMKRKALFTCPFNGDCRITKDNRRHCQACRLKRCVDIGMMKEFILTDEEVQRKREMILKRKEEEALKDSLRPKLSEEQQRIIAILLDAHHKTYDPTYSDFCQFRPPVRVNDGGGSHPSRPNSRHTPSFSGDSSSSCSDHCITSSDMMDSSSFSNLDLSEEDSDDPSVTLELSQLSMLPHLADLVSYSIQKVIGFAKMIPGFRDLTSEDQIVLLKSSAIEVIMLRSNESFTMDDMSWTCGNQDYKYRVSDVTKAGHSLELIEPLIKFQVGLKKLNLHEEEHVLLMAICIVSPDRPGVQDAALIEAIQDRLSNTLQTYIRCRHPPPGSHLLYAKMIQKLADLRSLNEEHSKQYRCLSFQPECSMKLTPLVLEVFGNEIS
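FP read-out; VDR + SRC2-3 coactivator peptide; 23 nl compound by pintool; 2 h RT incubation; reagents held at 4 deg C, protected from light.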
Active calls of the source: *; ? = inconclusive; & = joins results of further samples; [ ] = another dose, or the depositor's remark. % is set by controls: 0 for no effect and ±100 for the full control effect; potency is the fitted concentration of half-maximal effect. Some of the compounds tested; count on the stated rates, not on these rows.

SMILES	VDR inh
Cc1cc(C)cc(C(=O)Nc2ccc3[nH]c(=O)[nH]c3c2)c1	11%
CCOC(=O)c1c(NC(=O)CC)sc2c1CCN(Cc1ccccc1)C2	-6%
COC(=O)c1c(NC(=O)CN2CCC3(O)CCCCC3C2c2ccc(OC)cc2OC)sc(C)c1C (configuration not stated)	-17%
CCOC(=O)c1cccc(NC(=O)CC(c2cc(OC)c(OC)c(OC)c2)N2Cc3ccccc3C2=O)c1 (configuration not stated)	2%
O=c1c([N+](=O)[O-])c(NCCN2CCCCCC2)c2ccccc2n1-c1ccccc1	-4%
COc1cc(NC(=O)CC2C(=O)OCCN2Cc2ccccc2)cc(OC)c1 (configuration not stated)	6%
CC(=O)Nc1ccc(OC(=O)c2ccc(Cl)cc2)cc1	-14%
COCCOC(=O)c1c(C)n(C)c2ccc(OC(=O)c3cccs3)cc12	-2%
COC(=O)c1ccc(CSc2nc3ccc(C)cc3[nH]2)o1	0%
CC(NS(=O)(=O)c1cccc(C(=O)NCc2ccncc2)c1)c1ccccc1 (configuration not stated)	-13%
CN1CCN(c2ccc(Cl)cc2NS(=O)(=O)c2ccccc2Cl)CC1	-3%
CN(C(=O)c1cccc(NC(=O)Cc2ccc(NC(=O)C3CCN(C(=O)C4CCCC4)CC3)cc2)c1)C1CCCCC1	2%
Cc1ccc(C)c(NC(=O)Cn2c(=O)n(Cc3cccs3)c(=O)c3cccnc32)c1	10%
Cn1c2ccccc2c2cnn(CC(=O)NCCCN3CCN(c4ccccc4F)CC3)c(=O)c21	-5%&10%
O=C(c1ccc2c(c1)N(Cc1ccc(Cl)cc1)C(=O)c1ccccc1S2(=O)=O)N1CCCC1	-20%
CCn1nnc2cc(C(=O)Nc3cccc(Cl)c3)ccc21	25%
CCOc1ccc(NC(=O)CCc2c(C)nc3nc(C)nn3c2C)cc1	-22%
c1ccc(Oc2ccc(-c3ccnc4nc(N5CCN(c6ccccc6)CC5)nn34)cc2)cc1	-6%
O=C(CSc1nnc2c(n1)[nH]c1ccccc12)Nc1ccc2c(c1)OCO2	-8%
COC(=O)c1ccc(N2CCN(c3ccccc3)CC2)nc1	10%
CNC(=O)c1ccc(Nc2nnc(-c3ccc(C)c(S(=O)(=O)N4CCCCC4)c3)c3ccccc23)cc1	-5%
NNC(=O)C1C(O)CCC2CN3CCc4c([nH]c5ccccc45)C3CC21 (configuration not stated)	6%
COc1ccc(S(=O)(=O)N(C)c2ccc(C(=O)N3CCC(C(N)=O)CC3)cc2)cc1	22%
CC(C)(C)c1ccc(OC(=O)c2ccccc2)cc1	14%
CCNC(=O)CC1C(=O)N(c2ccccc2)C(=O)N1CCOC (configuration not stated)	6%
COc1ccc(NC(=O)CSc2c(C)n[nH]c2C)cc1	-11%
COc1ccccc1NC(=O)c1nn(C)cc1Br	-7%
COc1cc(OC)c(OC)cc1CN1CCN(C(=O)CC(C)C)CC1	11%
CCOC(=O)c1c(NC(=S)Nc2cccnc2)sc(C)c1C	-8%
COc1ccc(/C(=N/Nc2ncnc3ccccc23)C(=O)O)cc1	10%
COc1cc(/C=N/NC(=O)CC2(C)OCCCO2)ccc1OCc1ccccc1	-24%
Cc1ccc(S(=O)(=O)NCC2CCC(C(=O)NCCc3ccccc3)CC2)cc1 (configuration not stated)	-1%
Cc1nc(-c2ccc(F)cc2)c(CC(=O)N2CCN(S(=O)(=O)c3cccc(Cl)c3)CC2)s1	?
COC(=O)c1sccc1NC(=S)Nc1cccc(F)c1	5%
CCn1c(-c2ccoc2C)n[nH]c1=S	2%
Cc1cc(C)c(O)c(-c2cc(C(=O)NCCc3ccc(S(N)(=O)=O)cc3)[nH]n2)c1	11%
CC(C)NC(=O)c1ccccc1N(Cc1ccccc1)S(C)(=O)=O	3%
Cc1ccc(N=Nc2c(C)[nH]n(C(N)=S)c2=O)cc1	8%
CC(C1CC1)N(Cc1ccccc1)C(=O)NC(=O)c1ccccc1 (configuration not stated)	5%
CC(C)c1ccc(CNC(=O)c2ccc(N3CCCC3)c(NC(=O)NCc3ccc(F)cc3)c2)cc1	10%
CCCOc1ccc(C(=O)NNC(=S)NC(C)=O)cc1	?
O=C(Nc1nc(-c2cccs2)c(-c2cccs2)s1)C1CCCC1	-1%
COc1cc(C(=O)NCc2ccco2)cc(OC)c1OC	-1%
Cc1cc(C)cc(NC(=O)CSc2nc3[nH]ncc3c(=O)[nH]2)c1	6%
COC(=O)CN1C2=NCCCN2c2ccccc21	-3%
COc1ccc(N2CCN(S(=O)(=O)c3cnc[nH]3)CC2)cc1	26%
CCN(CC)C1CCN(C(=O)c2ccc(OC3CCN(Cc4ccccn4)CC3)cc2)C1 (configuration not stated)	9%
CN(C(=O)CSc1n[nH]c(-c2cccs2)n1)C1CCS(=O)(=O)C1 (configuration not stated)	0%
CCCC1Cc2c(sc3nc(SC)nc(N)c23)CO1 (configuration not stated)	-7%
COc1ccc(C2OC(=O)CC2C(=O)NC2CCCCCC2)cc1OC (configuration not stated)	-5%
O=C(CCn1nnc2ccccc2c1=O)N[C@@H](Cc1c[nH]c2ccccc12)C(=O)O	-4%
Cc1cccc(C)c1NC(=O)CNC(=O)CCCc1c[nH]c2ccccc12	-2%
CCCCNC(=O)N(O)C1N(/N=C/c2cccnc2)C(=S)SC1(C)C (configuration not stated)	2%
C=CCn1c(SCC(=O)NC23CC4CC(CC(C4)C2)C3)nc(O)cc1=O	-13%
CC(Sc1nnc(N)s1)C(=O)Nc1ccc(N2CCOCC2)cc1 (configuration not stated)	-1%
COc1ccc(NC(=O)c2cc3c(CO)cnc(C)c3oc2=Nc2cccc(F)c2)c(OC)c1	5%
COC(=O)c1ccccc1NC(=O)Cn1cnc2cc(C)c(C)cc21	20%
O=C(C[N+]1(CC#Cc2ccccc2)CCCCC1)c1ccc(Cl)cc1	-27%
CC1(C)CC(N=Cc2c(O)n(Cc3ccc4c(c3)OCO4)c(=O)c3ccccc23)CC(C)(C)N1	-1%
O=C(NC1CCCCCC1)C1c2ccccc2C(=O)N1Cc1ccccc1Cl (configuration not stated)	-14%

The list continues:
SMILES	VDR inh
CCCCCN(C(=O)CCC(=O)OCC(=O)NCc1cccc(OC)c1)c1c(N)n(CCCC)c(=O)[nH]c1=O	-8%
Nc1ccnn1Cc1ccncc1	-6%
Cc1cc(S(=O)(=O)N2c3ccc(F)cc3CCC2C)ccc1-n1cnnn1 (configuration not stated)	-10%
Cc1ccc(C2=[N+]([O-])C(C)N(O)C2(C)C)o1 (configuration not stated)	-9%
Cc1c(C)c2cc(Cl)c(OCC(=O)N3CCN(c4ccc(F)cc4)CC3)cc2oc1=O	-4%
Cc1ccc(Cn2c(C(=O)O)c(CNCc3ccc(OC(C)C)cc3)c3ccc(C)cc32)cc1	-1%
COc1ccc(N2C(=O)[C@@H]3[C@H](C2=O)[C@H]2c4ccccc4C=CN2[C@@H]3C(=O)Nc2ccccc2)cc1	-15%
Cc1cccnc1Sc1c([N+](=O)[O-])ncn1C	-12%
CCOc1ccc(N2C(=O)c3n[nH]c(-c4cccs4)c3C2c2cccc(F)c2)cc1 (configuration not stated)	-18%
O=C(NCCc1csc2nc(-c3ccccc3F)nn12)C(=O)Nc1cc(F)ccc1F	10%
Cc1cccc(CCn2c(=O)c3ccccc3n(CC(=O)Nc3ccccc3F)c2=O)c1	-7%
CC(=O)c1ccc(N(C(=O)c2ccco2)C(C(=O)NC2CCCC2)c2ccc(N3CCOCC3)cc2)cc1 (configuration not stated)	1%
COC(=O)C1CCN(C(=O)C2CCN(C(=O)[C@@H](NS(=O)(=O)c3ccc(C)cc3)C(C)C)CC2)CC1	6%
CC(=O)Nc1ccc(S(=O)(=O)N(C)c2ccc(OCC(=O)OCC(=O)N3CCCCC3)cc2)cc1	1%
CCOC(=O)CC(NC(=O)Cn1nnc(-c2ccc(C(F)(F)F)cc2)n1)c1ccccc1Cl (configuration not stated)	-6%

Arranged by the number under VDR inh (highest first): five from the list above.
SMILES,VDR inh
COC(=O)C1CCN(C(=O)C2CCN(C(=O)[C@@H](NS(=O)(=O)c3ccc(C)cc3)C(C)C)CC2)CC1,6%
CC(=O)Nc1ccc(S(=O)(=O)N(C)c2ccc(OCC(=O)OCC(=O)N3CCCCC3)cc2)cc1,1%
Cc1c(C)c2cc(Cl)c(OCC(=O)N3CCN(c4ccc(F)cc4)CC3)cc2oc1=O,-4%
CCOC(=O)CC(NC(=O)Cn1nnc(-c2ccc(C(F)(F)F)cc2)n1)c1ccccc1Cl (configuration not stated),-6%
Cc1cc(S(=O)(=O)N2c3ccc(F)cc3CCC2C)ccc1-n1cnnn1 (configuration not stated),-10%

(further entries)
SMILES	VDR inh
Cc1ccc(-n2c(SCC(=O)NC3CCS(=O)(=O)C3)nc3ccccc3c2=O)cc1 (configuration not stated)	19%
O=C(Cc1ccccc1)Nc1nnc(-c2ccccc2)o1	-2%
CCCNC(=O)c1ccc(N2CCC3(CC2)CC(c2ccccc2)=NO3)c(NC(=O)c2cccc(OC)c2)c1	-25%
O=C(Cn1c(=O)nc(-c2ccccc2)c2ccccc21)NCCCc1ccccc1	-7%
CCOC(=O)c1c(NC(=O)CSc2cn(CCNC(=O)c3ccc(OC)cc3)c3ccccc23)sc2c1CCC2	4%
C/C(=N\NC(=O)c1ccc(CN2CCOCC2)cc1)c1ccc([N+](=O)[O-])cc1	-7%
CCCCCOc1ccc(C(=O)Nc2ccc(S(=O)(=O)Nc3cc(C)on3)cc2)cc1	-8%
O=C(NCc1ccc2c(c1)OCO2)C(=O)NCC1OCCN1S(=O)(=O)c1ccc(F)cc1 (configuration not stated)	0%
Cc1ccc(SC(=O)COc2ccc(C)c(C)c2)cc1	?
CCOc1ncccc1C(=O)N(C)CC(=O)Nc1ccccc1SC	-20%
O=C1C(=Cc2ccco2)CCC1=Cc1ccco1	?
CC1S/C(=C(\C#N)C(N)=O)N(c2ccc(F)cc2)C1=O (configuration not stated)	?
Cc1ccccc1C(=O)Nc1ccc(NC(=O)c2cccs2)cc1	-3%
CSc1ccc(/C=C(\C#N)C(=O)Nc2cccc(C)c2)cc1	3%
CC(=O)c1cc2c(cc1NC(=O)CCc1ccccc1)OCO2	22%
CN(C)c1ccc(-c2nc(-c3ccncc3)no2)cc1[N+](=O)[O-]	4%
O=C(CN1CCN(c2ccc(Cl)cc2)CC1)Nc1ccc(F)cc1	4%
O=C(Cc1ccccc1)NCC(=O)Nc1cc(Cl)ccc1Cl	?
O=C(CN1CCN(CCOCCO)CC1)N1c2ccccc2Sc2ccc(Cl)cc21	5%
CCCCN(CC)CCCNC(=O)Cn1nc(Cc2cccnc2)c2ccccc2c1=O	25%
CCCC1=Nc2cc(C(=O)NC(C)c3ccccc3)ccc2Sc2ccc(C)cc21 (configuration not stated)	-2%
CC(C)CC(=O)n1nc(-c2ccco2)nc1NCc1ccc(Cl)cc1	0%
CCc1c(C)nc(SCC(=O)N2CCN(c3ccccc3OC)CC2)[nH]c1=O	-3%&9%
CCOC(=O)c1ccc(NC(=S)NC2CC(C)(C)NC(C)(C)C2)cc1	4%
COc1ccc(OCC(=O)Nc2ccc(N3CCN(C(=O)c4ccccc4C)CC3)cc2)cc1	38%[activator]
COc1ccc(Cl)cc1C(=O)O/N=C(\N)c1ccc(Cl)cc1	-14%
CCOc1ccc(N2CC(C(=O)NCCN3C(=O)S/C(=C\c4ccc(OC)cc4)C3=O)CC2=O)cc1 (configuration not stated)	1%
COC(=O)c1ccc(COc2ccc3ccc(=O)oc3c2)o1	13%
O=[N+]([O-])c1ccc(CC(Cl)c2ccccn2)cc1 (configuration not stated)	5%
Cc1cc(-c2ccc(C)c(S(=O)(=O)N(Cc3cccs3)C(C)C)c2)on1	13%
O=C1C2CCCN2C(c2ccccc2)N1c1cccc(Cl)c1 (configuration not stated)	-3%
N#CC(=C1CCCC1)c1nc(-c2ccccc2)cs1	3%
Cc1ccc(-n2ncc(C(=O)N3CCc4ccccc4C3)c2NC(=O)c2ccco2)cc1C	1%
Cn1c(=O)c2c(ncn2CC(=O)N/N=C/C=C/c2ccco2)n(C)c1=O	8%
Cc1ccc2c(c1)N(C(=O)CCC(=O)NC1CCN(Cc3ccccc3)CC1)CC(C)O2 (configuration not stated)	-26%
CC1CC(C)CN(CC(C)(C)NS(=O)(=O)c2ccccc2)C1 (configuration not stated)	16%
CCOc1ccc(C(=O)NC(=S)Nc2ccc(NC(=O)CC)cc2)cc1[N+](=O)[O-]	0%
CC(C)(C)NC(=O)C(c1ccc(F)cc1)N(CC1CCCO1)C(=O)CCC(=O)Nc1ccccn1 (configuration not stated)	-10%
CC(=O)c1cccc(NC(=O)C2=CC(c3ccc(F)cc3)=NS(=O)(=O)N2C)c1	2%
CCCCCCOc1ccc(/C=C/C(=O)Nc2sc3c(c2C(=O)OC)CCC3)cc1OC	-17%
Cc1cc(NC(=O)CCC(=O)N(CC(=O)NCC2CCCO2)c2cccc(F)c2)no1 (configuration not stated)	-10%
COCc1cc(C)nc2sc(C(=O)Nc3ccc(C(C)=O)cc3)c(N)c12	2%
CC1CCCC(NC(=O)c2ccc(CNc3c(N4CCCC4)c(=O)c3=O)cc2)C1C (configuration not stated)	0%

By substructure, those above with a tert-butyl group (2)
SMILES	VDR inh
CC(C)(C)c1ccc(OC(=O)c2ccccc2)cc1	14%
CC(C)(C)NC(=O)C(c1ccc(F)cc1)N(CC1CCCO1)C(=O)CCC(=O)Nc1ccccn1 (configuration not stated)	-10%
